StopGo reporter = FMDV 2A StopGo reporter, luciferase signal; Potency, µM (series often up to 57.9 µM), for inactives: top-dose signal change, negative = less light; AID 1159524; human cells with a luciferase reporter of 2A StopGo recoding; control for the full effect not named in the record; hit rate 1.2% among 410,000; active = well fitted falling curve with a large enough effect; inconclusive = small, poorly fitted or top-dose-only effect; inactive = no such curve, though single readings can be large or run the other way; tested in HEK293T cells; also: % is scaled to controls: 0 for no effect and ±100 for the full control effect; nearly all actives have a fitted effect of over 45% in size; luciferase light after 4 h
SARS PLP yeast = blocks SARS-CoV papain-like protease in a yeast assay; Potency, µM (highest dose often 32.9 µM), for inactives: at the highest dose activity, positive = growth rescue; S. cerevisiae expressing SARS-CoV PLpro, growth rescue; control for the full effect not named in the record; hit rate 0.19% among 330,000; active means well fitted rising curve with a large enough effect; inconclusive means small, poorly fitted or top-dose-only effect; inactive means no such curve, though single readings can be large or run the other way; also: 0% is about no effect; nearly all actives have a fitted effect of over 55% in size; growth read by luminescence after 48 h
RE007 growth inh = less growth of the S. pombe RE007 Vpr strain | hit rate 0.21% among 360,000 | S. pombe RE007 Vpr strain, BacTiter-Glo ATP luminescence, 24 h; control for the full effect not named in the record | AID 651644 | Potency, µM (top dose mostly 92.2 µM), inactives show top-dose activity change, negative = less growth; active = well fitted falling curve with a large enough effect; inconclusive = small, poorly fitted or top-dose-only effect; inactive = no such curve, though single readings can be large or run the other way;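 also: % is scaled to controls: 0 for no effect and ±100 for the full control effect; nearly all actives have a fitted effect of over 50% in size; the assay follows cell death caused by Vpr and the record does not say whether a fall means rescue or toxicity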
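Fission yeast strain RE007, carrying one chromosomally integrated HIV-1 vpr copy, was seeded at OD 0.01 in PMG+AL medium with 23 nL pinned compound. After 24 h at 30 °C and 99% humidity, viability was read by BacTiter-Glo luminescence.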
Lassa entry inh = inhibitors of Lassa virus binding or cell entry | Lassa virus pseudotype entry inhibition, cell reporter; control for the full effect not named in the record | Potency, µM (highest dose often 37.9 µM), inactives show top-dose activity change, negative = inhibition, hits mostly inhibitors | hit rate 1.2% among 300,000 | AID 540256; active means well fitted inhibition curve with a large enough effect; inconclusive means small, poorly fitted or top-dose-only effect, or effect the other way; inactive means flat fitted curve, though single readings scatter; tested in HEK293 cells; also: % is scaled to controls: 0 for no effect and ±100 for the full control effect; nearly all actives have a fitted effect of over 50% in size; luciferase read-out
Cruzain noTriton = blocks cruzain activity in detergent-free assay. purified cruzain, Z-FR-AMC fluorescence, no detergent. Potency, µM, for the others: max response, negative = inhibition, hits mostly inhibitors. hit rate 2.3% among 200,000. P25779;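 also: plate controls were enzyme without inhibitor for no effect and buffer without enzyme for full effect; nearly all actives have a fitted effect of over 40% in size; top concentration of the series not given in the record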
Target sequence (P25779 123-467 limits assumed): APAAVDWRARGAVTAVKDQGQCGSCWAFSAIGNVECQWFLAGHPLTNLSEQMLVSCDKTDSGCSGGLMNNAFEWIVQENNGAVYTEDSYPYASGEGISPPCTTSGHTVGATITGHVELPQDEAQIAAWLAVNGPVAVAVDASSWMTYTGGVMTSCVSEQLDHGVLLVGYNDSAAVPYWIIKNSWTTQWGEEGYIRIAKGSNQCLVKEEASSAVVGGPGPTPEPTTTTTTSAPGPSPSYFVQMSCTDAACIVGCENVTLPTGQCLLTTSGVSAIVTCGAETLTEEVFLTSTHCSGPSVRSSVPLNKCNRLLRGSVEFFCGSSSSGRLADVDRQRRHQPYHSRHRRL
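Detergent-free condition (0.00005% Triton X-100) in acetate buffer pH 5.5 with DTT. 1.5 nM enzyme and compound were pre-mixed 15 min, then 2 uM Z-FR-AMC substrate added; reaction progress from fluorescence change between first and third reads (60 s).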
NS1 inh = influenza NS1 inhibition. AID 2326. S. cerevisiae slowed by influenza A NS1, growth recovery by OD600. Potency, µM (top dose mostly 46.1 µM), for inactives: top-dose activity, positive = more growth. hit rate 0.4% among 270,000; active means well fitted rising curve with a large enough effect; inconclusive means small, poorly fitted or top-dose-only effect; inactive means no such curve, though single readings can be large or run the other way; also: nearly all actives have a fitted effect of over 50% in size
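Read-out: OD600 growth recovery of NS1-expressing budding yeast. Cells grown overnight at 30C in -URA glucose medium, washed, resuspended and diluted 1:100 in 2% galactose assay medium, pH 6.0. Same strain lacking NS1 served as positive control.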
Cruzain inh Det = inhibitors of Trypanosoma cruzi cruzain with detergent; P25779; purified cruzain, Z-FR-AMC fluorescence, 0.01% Triton; Potency, µM, inactives show max response, negative = inhibition, usual class: inhibitors; hit rate 0.43% among 200,000;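 also: plate controls were neutral wells for no effect and buffer without enzyme for full effect; nearly all actives have a fitted effect of over 40% in size; top concentration of the series not given in the record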
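Purified cruzain (1.5 nM final) was preincubated with compounds for 15 min at room temperature in 100 mM sodium acetate pH 5.5, 5 mM DTT, 0.01% Triton X-100. Reaction started with 2 uM Z-FR-AMC; AMC fluorescence change over 60 s gave activity.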
Marburg entry inh = inhibitors of Marburg virus binding or cell entry; Marburg virus pseudotyped entry inhibition, cell reporter; control for the full effect not named in the record; about a third of the inactives were read at about 46 µM; Potency, µM (doses to about 37.8 µM), for the others: at the highest dose activity change, negative = inhibition, actives largely listed as inhibitors; hit rate 1.8% among 300,000; AID 540276; active = well fitted inhibition curve with a large enough effect; inconclusive = small, poorly fitted or top-dose-only effect, or effect the other way; inactive = flat fitted curve, though single readings scatter; tested in HEK293 cells; about a fifth of its hits are not listed in these tables; also: % is scaled to controls: 0 for no effect and ±100 for the full control effect; luciferase read-out
Starred values were filed as active, the others as inactive; u = inconclusive; x = not tested or not shown; & = joins results of further samples; [ ] = dose if it differs, or a comment. Unless noted, calls follow the shape of the dose curve; as a rule, active = well fitted curve in the direction sought with a large enough effect; inconclusive = small, poorly fitted or top-dose-only effect, or another doubt; inactive = no such curve, though single readings can be large; an effect the other way counts as inactive or inconclusive. Potency is read from the fitted curve at half-maximal effect.

SMILES	StopGo reporter	SARS PLP yeast	RE007 growth inh	Lassa entry inh	Cruzain noTriton	NS1 inh	Cruzain inh Det	Marburg entry inh
Cc1ccc(OCCNS(=O)(=O)c2ccc(N3CCCC3=O)cc2)cc1	u	12%	14%	-29%	1%	3%	-2.3%	-21%
CCOC(=O)N1CCN(C(=O)/C(=C/c2ccc(Br)cc2)NC(=O)c2ccc(OC)cc2)CC1	-9%	1%	-4%	u	3%	2%	-12%	-9%
Cc1c(OCC(=O)NC(Cc2c[nH]c3ccc(O)cc23)C(=O)O)ccc2c3c(c(=O)oc12)CCC3 (stereo not given)	-3%	5%	0%	-13%	x	u	x	25%[46.1 µM]
O=C(COC(=O)CNC(=O)c1ccc(Cl)cc1Cl)NC(=O)NCc1ccccc1	-2%	-2%	21%	5%	x	x	x	u
Cc1cc(C(=O)NNc2ccc(Cl)cc2)no1	1%	-5%	49%	-8%[46.1 µM]	x	-69%	x	4.5µM*
Cc1cc(C)nc(N(C#N)Cc2ccc([N+](=O)[O-])cc2)n1	-15%	0%	8%	-17%[46.1 µM]	x	-4%	x	-5%[46.1 µM]
COc1ccccc1C(C)N(C)Cc1nc(COc2ccccc2)no1 (stereo not given)	0%	0%	-24%	u	x	-6%	x	-15%[46.1 µM]
O=C(NC1CCCC1)c1cc2nc(-c3ccccc3)cc(-c3ccccc3)n2n1	30%[activator]	0%	-3%	x	x	5%	x	x
COc1ccc(N(C)C(=O)c2cc(S(=O)(=O)N3CCc4ccccc43)cn2C)c(OC)c1	-19%	x	x	u	-7%	x	-1.8%	x
COc1cccc(NC(=O)C2C3C=CC(C3)C2C(=O)O)c1 (stereo not given)	0%	-7%	6%	2%[46.1 µM]	x	-12%	x	-28%[46.1 µM]
O=S(=O)(c1ccccc1)N1CCN(C/C=C/c2ccccc2)CC1	-26%	4%	-5%	-22%[46.1 µM]	x	2%	x	-20%[46.1 µM]
COc1ccc(OC)c(N=CC2=C(O)CC(C)(C)CC2=O)c1	x	-9%	-8%	2%	-10%	-70%	-2.1%	0%
COc1ccc(-c2nnc(Nc3ccc(OC)c(C(=O)N4CCCCC4)c3)c3ccccc23)cc1	u	14%	x	-22%	6%	-9%	-3.0%	u
COc1ccc2c(c1OC)c(=O)n1c3ccc(OC(C)C(=O)NCCN4CCOCC4)cc3c3ccnc2c31 (stereo not given)	-19%	-8%	-6%	x	x	-35%	x	x
Cc1ccc(S(=O)(=O)N2CCCC(c3nnc4n3-c3ccccc3SC4)C2)cc1 (stereo not given)	u	3%	5%	5%	14%	3%	-6.2%	-8%&-8%
CCc1cc2c(NC(Cc3c[nH]c4ccccc34)C(=O)O)nc(C)nc2s1 (stereo not given)	-18%	9%	3%	1%	9%	11%	-8.5%	4%
CC(N)[C@H](O)c1ccc(O)c(O)c1 (stereo not given in full)	x	x	x	u	4%	-5%	-8.3%	u
CCc1[nH]nc2c1C(C1C=CCCC1)C(C#N)=C(N)O2 (stereo not given)	u	0%	5%	x	x	5%	x	x
O=C(c1cncc(Br)c1)N1CCN(c2ccc([N+](=O)[O-])cc2)CC1	0%	0%	-15%	2%	-17%	-1%	-7.7%	6%
O=C(Cn1cc(S(=O)(=O)N2CCN(c3ccccc3F)CC2)c2ccccc2c1=O)Nc1ccc(F)cc1Cl	6%	x	x	1%[46.1 µM]	u	x	-1.3%	u
COC(=O)C(C)SC1=N/C(=C/c2ccc(-n3cncn3)cc2)C(=O)N1 (stereo not given)	u	3%	4%	x	x	3%	x	x
CC(=O)Nc1ccc(S(=O)(=O)Nc2ccc(N3CCOCC3)c(F)c2)cc1	-11%	-1%	5%	15%	-5%	-2%	2.4%	-5%
O=S(=O)(c1cccc(-c2csc(-c3ccccc3)n2)c1)N1CCOCC1	1%	-4%	3%	-9%	-6%	-7%	-3.3%	u
CCOc1ccc(NC(=O)Cn2cc(C(=O)c3ccccc3)c(=O)c3cc(OC)ccc32)cc1	-14%	x	x	-11%[46.1 µM]	8%	x	-7.7%	u
CCOC(=O)c1c(-n2c(C)cc(/C=C3/C(=O)NC(=O)N(CC)C3=O)c2C)sc2c1CCCC2	u	x	2%	-23%	x	x	x	-5%

(cont.)
SMILES	StopGo reporter	SARS PLP yeast	RE007 growth inh	Lassa entry inh	Cruzain noTriton	NS1 inh	Cruzain inh Det	Marburg entry inh
CC(C)C(OC(=O)C1CCCO1)C(=O)NC1CCCC1 (stereo not given)	-1%	3%	-10%	-17%[14.3 µM]	4%	4%	3.2%	-9%
O=C(NCCCn1ccnc1)C(=O)NCc1ccccc1	-27%	0%	-1%	3%	7%	11%	-1.8%	5%
O=C1CC(C(F)(F)F)=NN1	24%	0%	5%	u	x	-4%	x	-11%[14.2 µM]
CC1CCN(S(=O)(=O)c2ccc(C(=O)OC(C)C(=O)NC3CCCCC3C)cc2)CC1 (stereo not given)	-3%	-2%	8%	3%	x	13%	x	-1%
Cc1cccn2c(=O)c3cc(C(=O)NCc4ccco4)c(=N)n(C4CCCC4)c3nc12	-14%	0%	-11%	-7%	x	-1%	x	u
Cc1ccc(NC(=O)CSc2nc3nccnc3c(=O)n2CCc2c[nH]c3ccccc23)c(C)c1	-10%	x	x	3%[46.1 µM]	-1%	x	-0.7%	x
Cc1cccc(CN2C(=O)CN=C(c3ccccc3)c3cc(Cl)ccc32)c1	-26%	x	x	15%[46.1 µM]	4%	x	-1.3%	x
CCOc1ccccc1CNC(=O)C1CCN(C(=O)N2CCOc3ccc(Cl)cc32)CC1	0%	x	x	u	13%	x	-3.5%	x
Cc1ccsc1C(=O)OC1CCOC1=O (stereo not given)	-12%	-5%	14%	-6%	-4%	1%	2.0%	0%[46.1 µM]
CC(=O)NC(CC(=O)N(C)Cc1c(F)cccc1Cl)c1ccccc1 (stereo not given)	13%	0%	-1%	-15%[46.1 µM]	x	x	x	-12%[46.1 µM]
COc1ccc(/C=N/Nc2cc(C)nc3ccccc23)cc1	u	1%	-3%	u	x	-27%	x	u
CCOc1ccccc1C(=O)NC1CC2CCCC(C1)N2Cc1nnnn1Cc1ccco1 (stereo not given)	-26%	-2%	-7%	u	2%	-19%	2.5%	-20%&-20%
COC(=O)C(CC(C)C)NC(=O)CSc1nc(-c2ccccc2)c(C#N)c(=O)[nH]1 (stereo not given)	10%	1%	-13%	2%	14%	-4%	-3.3%	28%&28%[46.1 µM]
COc1ccccc1C(=O)N1CCN(CCc2ccccc2)CC1	5%	-4%	-7%	2%	-7%	-7%	-2.8%	12%
COc1ccc(C(=O)N2CC3(CC(c4cccc(NC(=O)CC(c5ccccc5)c5ccccc5)c4)=NO3)C[C@H]2C(N)=O)cc1 (stereo not given in full)	-17%	0%	-11%	x	x	10%	x	x
CC(=O)C1N=NCC1c1ccccc1 (stereo not given)	4%	x	1%	0%[46.1 µM]	x	x	x	8%[46.1 µM]
O=C(CSCc1ccccc1)Nc1cccc(C(=O)Nc2ccccc2C(=O)O)c1	7%	1%	20%	1%	-8%	26%	-8.7%	18%
O=S(=O)(c1ccc(N2CCCCCC2)nc1)N1CCCC1	2%	-1%	2%	3%[46.1 µM]	x	x	x	13%[46.1 µM]
Nc1cc(-c2ccccc2)nn1Cc1ccc(Cl)cc1	u	-2%	u	-12%	1%	6%	-8.0%	u
Cn1cc(-c2cccc(Cl)c2)cc(C#N)c1=O	-2%	1%	-10%	-5%	x	x	x	-9%[46.1 µM]
CCOC(=O)C1=C(CS(=O)(=O)c2ccc(Cl)cc2)NC(=O)NC1c1ccc(O)c(OC)c1 (stereo not given)	-27%	8%	0%	x	x	7%	x	x
Cc1ccc(N=C2NC(=O)c3cccc([N+](=O)[O-])c32)cc1	14%	-8%	-3%	3%	-24%	0%	-2.8%	17%
O=C1c2ccccc2NC(c2ccccc2O)N1NS(=O)(=O)c1ccccc1 (stereo not given)	16%	-2%	7%	u	x	x	x	u
C=COCCn1c(C)c(C(=O)OCC)c2cc(O)ccc21	-15%	4%	9%	9%	3%	-2%	-1.9%	0%
COC(=O)c1cc2c(N)c(C(=O)c3ccc(Cl)cc3)sc2nc1C(OC)OC	-12%	0%	6%	-18%[46.1 µM]	x	3%	x	-18%[46.1 µM]

(next part)
SMILES	StopGo reporter	SARS PLP yeast	RE007 growth inh	Lassa entry inh	Cruzain noTriton	NS1 inh	Cruzain inh Det	Marburg entry inh
CCN(Cc1ccc(NC(C)=O)cc1)CC1CCCN(CCc2cccc(OC)c2)C1 (stereo not given)	u	0%	-8%	x	x	-12%	x	x
O=C(c1cc2c(=O)oc3ccccc3c2s1)N1CCN(c2ccccc2)CC1	-16%	x	x	u	-6%	x	-0.3%	7%[46.1 µM]
COc1ccc(N2CCN(c3cnc4ccccc4n3)CC2)cc1	6%	0%	5%	x	x	-8%	x	-9%[46.1 µM]
CC(C)(C)[C@@H]1C=C(C(=O)O)O[C@H](OCc2ccc(CO)cc2)C1	-12%	0%	-4%	x	x	0%	x	x
Cc1ccc(C(=O)Nc2nc(C)c(C)s2)o1	-4%	-8%	-29%	u	-2%	-14%	-8.8%	u
COc1ccc(NC(C)=O)cc1NC(=O)CSc1nnc(-c2ccc(F)cc2)n1N	11%	6%	28%	18%	-1%	-3%	-1.1%	1%
Cc1ccc(C)c(S(=O)(=O)N2CCN(CC(=O)NC(=O)NCc3ccco3)CC2)c1	-14%	2%	9%	-25%	x	-1%	x	27%[46.1 µM]
COC(=O)C(Cc1ccccc1)NC(=O)COc1ccc(C(C)(C)C)cc1 (stereo not given)	u	-31%	-7%	u	u	-87%	-4.2%	u
CCOC(=O)c1c(NC2=NS(=O)(=O)c3ccccc32)sc2c1CCCCC2	-20%	-14%	-4%	-2%	-26%	6%	-5.7%	-21%
CCCCN(C)CCNC(=O)c1cc(-c2ccc(Cl)s2)nc2ccccc12	-23%	x	x	u	10%	x	-4.2%	-9%[46.1 µM]
CC(=O)c1ccc(OC(=O)Oc2ccc(C(C)=O)cc2)cc1	2%	x	3%	3%	x	x	x	9%
Cc1cccc2cc(-c3nc(-c4cccs4)no3)c(=O)oc12	u	x	x	26%[46.1 µM]	3%	x	-1.0%	x

Compound activity (PubChem BioAssay)
